Assay outcomes deposited in PubChem by National Center for Advancing Translational Sciences (NCATS).
2A StopGo – High Throughput Screening for Foot and Mouth Disease Virus Antivirals | AID 1159524, 2015 | human cells with a luciferase reporter of 2A StopGo recoding; control for the full effect not named in the record | Potency, µM (highest dose often 57.9 µM), without a hit: at the highest dose signal change, negative = less light | actives 1.2% (n = 410,000); active = well fitted falling curve with a large enough effect; inconclusive = small, poorly fitted or top-dose-only effect; inactive = no such curve, though single readings can be large or run the other way; tested in HEK293T cells; also: % is scaled to controls: 0 for no effect and ±100 for the full control effect; nearly all actives have a fitted effect of over 45% in size; luciferase light after 4 h
LASV entry inh – qHTS for Inhibitors of binding or entry into cells for Lassa Virus; Potency, µM (top dose mostly 37.9 µM), inactives show at the highest dose activity change, negative = inhibition, most hits filed as inhibitors; actives 1.2% (n = 300,000); Lassa virus pseudotype entry inhibition, cell reporter; control for the full effect not named in the record; active means well fitted inhibition curve with a large enough effect; inconclusive means small, poorly fitted or top-dose-only effect, or effect the other way; inactive means flat fitted curve, though single readings scatter; tested in HEK293 cells; also: % is scaled to controls: 0 for no effect and ±100 for the full control effect; nearly all actives have a fitted effect of over 50% in size; luciferase read-out
Marburg entry inh – qHTS for inhibitors of binding or entry into cells for Marburg Virus | Marburg virus pseudotyped entry inhibition, cell reporter; control for the full effect not named in the record; about a third of the inactives were read at about 46 µM | Potency, µM (highest dose often 37.8 µM), without a hit: at the highest dose activity change, negative = inhibition, most hits filed as inhibitors | actives 1.8% (n = 300,000); active = well fitted inhibition curve with a large enough effect; inconclusive = small, poorly fitted or top-dose-only effect, or effect the other way; inactive = flat fitted curve, though single readings scatter; tested in HEK293 cells; about a fifth of its hits are not listed in these tables; also: % is scaled to controls: 0 for no effect and ±100 for the full control effect; luciferase read-out
Cruzain noTriton – qHTS Assay for Promiscuous and Specific Inhibitors of Cruzain (without detergent); Cruzipain (Trypanosoma cruzi), P25779; purified cruzain, Z-FR-AMC fluorescence, no detergent; Potency, µM, for inactives: max response, negative = inhibition, hits mostly inhibitors; actives 2.3% (n = 200,000); AID 1476, 2009;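 also: plate controls were enzyme without inhibitor for no effect and buffer without enzyme for full effect; nearly all actives have a fitted effect of over 40% in size; top concentration of the series not given in the record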
Target sequence (P25779 123-467 limits assumed): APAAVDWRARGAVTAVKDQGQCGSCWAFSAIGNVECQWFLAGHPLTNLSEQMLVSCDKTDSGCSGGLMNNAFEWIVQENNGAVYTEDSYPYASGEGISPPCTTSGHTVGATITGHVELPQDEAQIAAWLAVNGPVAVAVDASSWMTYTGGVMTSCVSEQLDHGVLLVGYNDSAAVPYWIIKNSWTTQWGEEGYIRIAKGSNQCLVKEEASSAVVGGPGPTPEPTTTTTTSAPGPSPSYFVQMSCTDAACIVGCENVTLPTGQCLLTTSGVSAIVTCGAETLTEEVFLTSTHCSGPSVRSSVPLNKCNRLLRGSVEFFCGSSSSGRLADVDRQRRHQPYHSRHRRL
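Detergent-free condition (0.00005% Triton X-100) in acetate buffer pH 5.5 with DTT. 1.5 nM enzyme and compound were pre-mixed 15 min, then 2 uM Z-FR-AMC substrate added; reaction progress from fluorescence change between first and third reads (60 s).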
Cruzain Triton – qHTS Assay for Promiscuous and Specific Inhibitors of Cruzain (with detergent); Cruzipain (Trypanosoma cruzi), P25779; purified cruzain, Z-FR-AMC fluorescence, 0.01% Triton; Potency, µM, without a hit: max response, negative = inhibition, hits mostly inhibitors; actives 0.43% (n = 200,000); AID 1478, 2009;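 also: plate controls were neutral wells for no effect and buffer without enzyme for full effect; nearly all actives have a fitted effect of over 40% in size; top concentration of the series not given in the record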
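Cruzain (1.5 nM) preincubated 15 min at RT with compound in 100 mM sodium acetate pH 5.5, 5 mM DTT, 0.01% Triton X-100. Reaction started with 2 uM Z-FR-AMC; AMC fluorescence (ex 360/em 450 nm) change over 60 s gave rate.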
NS1 function inh – qHTS Assay for Inhibitors of Influenza NS1 Protein Function; S. cerevisiae slowed by influenza A NS1, growth recovery by OD600; Potency, µM (series often up to 46.1 µM), inactives show top-dose activity, positive = more growth; actives 0.4% (n = 270,000); active means well fitted rising curve with a large enough effect; inconclusive means small, poorly fitted or top-dose-only effect; inactive means no such curve, though single readings can be large or run the other way; also: nearly all actives have a fitted effect of over 50% in size
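A cell-based growth assay was used: compounds that relieve NS1-induced slow growth of budding yeast raise OD600. Assay medium was yeast nitrogen base with ammonium sulphate and -URA supplement, pH 6.0, with 2% galactose.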
SARS PLpro yeast – qHTS of Yeast-based Assay for SARS-CoV PLP | actives 0.19% (n = 330,000) | S. cerevisiae expressing SARS-CoV PLpro, growth rescue; control for the full effect not named in the record | Potency, µM (highest dose often 32.9 µM), for the others: at the highest dose activity, positive = growth rescue; active means well fitted rising curve with a large enough effect; inconclusive means small, poorly fitted or top-dose-only effect; inactive means no such curve, though single readings can be large or run the other way; also: 0% is about no effect; nearly all actives have a fitted effect of over 55% in size; growth read by luminescence after 48 h
RE007 growth inh – qHTS Assay for Inhibitors of the HIV-1 protein Vpr | actives 0.21% (n = 360,000) | Potency, µM (titrated, usually from 92.2 µM), without a hit: at the top dose activity change, negative = less growth | S. pombe RE007 Vpr strain, BacTiter-Glo ATP luminescence, 24 h; control for the full effect not named in the record; active = well fitted falling curve with a large enough effect; inconclusive = small, poorly fitted or top-dose-only effect; inactive = no such curve, though single readings can be large or run the other way;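 also: % is scaled to controls: 0 for no effect and ±100 for the full control effect; nearly all actives have a fitted effect of over 50% in size; the assay follows cell death caused by Vpr and the record does not say whether a fall means rescue or toxicity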
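Fission yeast RE007 carrying one integrated HIV-1 vpr copy, seeded at OD 0.01 in PMG+AL medium with 23 nL pinned compound. Grown 24 h at 30 degrees; viability read by BacTiter-Glo luminescence after 5 min.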
An asterisk follows results filed as active; u = inconclusive; x = not tested or not shown; & = joins results of further samples; [ ] = another dose, or the depositor's remark. Unless noted, calls follow the shape of the dose curve; as a rule, active = well fitted curve in the direction sought with a large enough effect; inconclusive = small, poorly fitted or top-dose-only effect, or another doubt; inactive = no such curve, though single readings can be large; an effect the other way counts as inactive or inconclusive. Potency is read from the fitted curve at half-maximal effect.

SMILES | 2A StopGo | LASV entry inh | Marburg entry inh | Cruzain noTriton | Cruzain Triton | NS1 function inh | SARS PLpro yeast | RE007 growth inh
CCC(C)NS(=O)(=O)c1ccc(NC(C)=O)cc1 (stereo not given) | 7.5% | 12.9% | 4.4% | 5.1% | -1.6% | 14.2% | u | 8.8%
O=C1C2C(C(=O)N1/N=C/c1ccc(N3CCCCC3)o1)C1C=CC2C12CC2 (stereo not given) | -8.9% | -0.3% | 5.5% | -6.9% | -3.1% | 18.3% | 22.1% | 0.0%
CCCCC(=O)C1CCN(Cc2ccccc2)CC1 | -16.6% | 9.4% | u | 3.1% | 0.8% | 1.7% | -1.1% | 1.9%
CCCCNC(=S)N/N=C/c1ccc(OCC(=O)Nc2c(C)cc(C)cc2C)c(OC)c1 | -28.3% | u | 2.3% | -2.3% | -10.8% | 5.2% | -0.2% | -6.2%
Cc1cccc(NC(=O)COc2nsnc2N2CCOCC2)c1 | -14.1% | -3.4% | 5.3%[46.1 µM] | -7.3% | 3.5% | -11.2% | 1.3% | -11.6%
c1csc(CNCc2ccncc2)c1 | -10.5% | 1.2%[46.1 µM] | -7.0%[46.1 µM] | x | x | x | -0.4% | -6.8%
CCOC(=O)C1=C(C)N(CCCCCC(=O)O)C(=O)NC1c1ccccc1Cl (stereo not given) | -8.8% | -15.7% | -3.0% | 1.2% | -1.5% | u | 8.1% | 0.0%
Cc1ccccc1-c1nc(CS(=O)CC(=O)N2CCC3(CC2)OCCO3)c(C)o1 (stereo not given) | -0.5% | -6.3% | 9.8% | u | 2.1% | 1.12µM* | u | -7.2%
COc1cccc(CSc2nccn2C)c1 | 8.7% | x | x | x | x | -0.1% | -2.4% | 1.8%
Cc1ccc(N(CC(O)CON=C2c3ccccc3-c3ccccc32)S(C)(=O)=O)cc1 (stereo not given) | x | u | u | u | -2.6% | 18.7% | x | 6.7%
O=c1[nH]c(N2CCc3ccccc32)nc2c1CCCC2 | -11.4% | 1.3% | 0.0% | -8.0% | 8.3% | -6.7% | 3.7% | 0.3%
CN(C)c1ccc(C2CC(c3ccccc3)=Nc3nc(-c4ccccc4)cn32)cc1 (stereo not given) | x | 7.0% | u | u | -7.1% | 22.2% | -6.4% | x
Cc1nc(C)c(C(=O)C2=C(O)C(=O)N(CCN3CCOCC3)C2c2ccco2)s1 (stereo not given) | 0.0% | -0.3% | 24.5% | -1.2% | -1.1% | -23.4% | -2.5% | 1.5%
O=C(Nc1nc(-c2ccccn2)cs1)c1ccc(Br)s1 | 0.0% | u | u | u | -24.1% | -161.0% | 5.7% | u
CCCN(CCC)CCCNC(=O)c1cn(CC)c2ccc(S(=O)(=O)N(C)C3CCCCC3)cc2c1=O | 7.8%&28.6% | -1.9%[46.1 µM] | 5.6%[46.1 µM] | -8.7% | -1.3% | 0.2% | 3.4% | 0.5%
CC(=O)C1CCCN(C(=O)c2ccc3nc(Cc4cccc(Cl)c4)oc3c2)C1 (stereo not given) | -3.5% | u | -14.6% | x | x | -7.5% | -0.3% | -0.3%
CC(C)NC(=O)CN(C(=O)CCC(=O)Nc1ccccn1)c1ccc(F)c(Cl)c1 | -8.7% | 7.7% | 8.5% | 19.9% | 1.4% | -3.6% | -0.3% | -10.3%
CCc1cnc2c(c1SCC(=O)Nc1ccc(Cl)cc1)c(=O)n(C)c(=O)n2C | -5.2% | 20.3%[46.1 µM] | x | -9.1% | -0.2% | x | x | x
O=C(CSc1nc2[nH]c(=O)cc(O)c2s1)NCCc1ccccc1 | -15.0% | -17.5% | -12.9% | x | x | x | 0.3% | -10.5%
CCOC(=O)C1CCN(C(=O)CCn2c(=O)[nH]c3ccsc3c2=O)CC1 | -9.3% | -0.7% | 3.8% | 5.3% | 2.4% | 4.7% | 3.9% | -1.2%
S=c1[nH]nc(Nc2ccccc2)s1 | 7.8% | 19.1% | 28.8%[46.1 µM] | x | x | x | 6.0% | -3.1%
COc1cc(C=O)ccc1OCCCOc1ccccc1C(=O)O | 8.91µM* | u | u | -8.6% | -1.6% | 11.6% | 1.5% | -1.7%
CCC(=O)Nc1c(C)c(CC)nc2ccccc12 | -18.6% | -21.0% | 6.0% | -2.2% | 7.4% | -10.1% | 0.8% | 6.8%
CCSc1nnc(NC(=O)CSC2=NCCS2)s1 | -9.2% | 16.4% | -14.3%[46.1 µM] | x | x | x | 1.9% | 2.8%
COc1ccccc1CNc1ccc2nnc(CCNC(=O)c3ccc(C)cc3)n2n1 | -7.6% | x | x | x | x | -8.0% | 0.2% | 2.3%
Cc1ccc(-c2n[nH]c(=S)n2/N=C/c2cccn2C)cc1 | -18.0% | -23.2% | 20.4% | -11.0% | -4.5% | 1.1% | 7.2% | 4.1%
CCc1cccc(C)c1NC(=O)c1cc(S(=O)(=O)N2CCOCC2)cn1C | -5.6% | -17.9%[46.1 µM] | x | 0.7% | -2.0% | x | x | x
CC(Sc1nc2ccccc2s1)C(=O)NCc1ccc2c(c1)OCO2 (stereo not given) | 0.5% | 12.1% | 17.8% | 1.0% | -7.0% | -11.3% | -16.2% | -2.2%
Cc1ccc(C(=O)OC(C)CN2CCOCC2)cc1 (stereo not given) | 40.7%[activator] | 27.9% | 2.6%[46.1 µM] | x | x | x | 4.5% | 1.1%
Cc1cc(O)c(Sc2ccccc2)c(=O)o1 | -6.9% | 22.3%[46.1 µM] | -11.6%[46.1 µM] | x | x | x | x | -10.1%
CCc1nc(SCc2ccccc2C)n[nH]1 | 0.0% | x | x | x | x | -3.6% | 1.6% | -9.7%
CCOC(=O)c1c(NC(=O)CN2CCCc3ccccc32)sc(C)c1CC | -1.1% | u | u | -24.7% | -6.5% | -6.3% | 2.5% | 10.9%
COc1ccc(-c2c(C)nn(Cc3ccccc3)c2N)cc1 | -2.0% | 13.9%[14.3 µM] | -3.2% | 4.8% | -2.3% | -4.6% | -5.4% | 18.1%
Cn1c(-c2ccccc2)cc(=O)n1-c1ccccc1 | 1.9% | -14.0%[46.1 µM] | 6.7%[46.1 µM] | x | x | x | x | -5.5%
COc1ccc(C(=O)OCC(=O)N2C(C)CCCC2C)cc1S(=O)(=O)N1CCOCC1 (stereo not given) | 2.5% | -1.8% | 17.4% | x | x | x | -10.9% | 6.4%
O=C(CCCN1C(=O)C(c2ccccc2)Oc2cccnc21)NCc1ccccc1Cl (stereo not given) | -3.3% | x | x | x | x | -5.9% | 3.3% | -11.8%
COc1ccc(C(=O)NC(C)(C)C)cc1S(=O)(=O)N1CCCC1 | 5.9% | -0.9% | -13.7% | -0.8% | 1.5% | 6.3% | 11.0% | -15.8%
CC(=O)c1cccc(CN2CCN(CC(C)C)C(CCO)C2)c1 (stereo not given) | -13.1% | x | x | x | x | -4.4% | -0.6% | 20.6%
CN(CC(=O)Nc1ccccc1Br)C(=O)CNC(=O)c1ccco1 | -14.8% | -2.4% | 15.9% | x | x | x | -0.2% | 8.7%
COc1ccc(CN2CC(C(=O)NCCCN3CCOCC3)CC2=O)cc1 (stereo not given) | -21.8% | 8.6% | 3.5% | -3.6% | 4.8% | -2.3% | 2.6% | -1.6%
Cc1ccc(C(=O)NC2CC3CCC(C2)N3Cc2ccco2)cc1 (stereo not given) | 16.2% | -2.3% | -4.3% | 1.8% | 0.9% | 1.2% | -3.5% | -0.2%
O=C(COC(=O)c1ccc2c(c1)OCCO2)Nc1ccc(F)cc1 | 10.7% | 4.2% | 16.5% | x | x | x | 0.6% | -24.2%
O=C(Nc1cccc(S(=O)(=O)N2CCOCC2)c1)c1cn(-c2ccccc2)nc1-c1ccccc1 | 26.0% | u | u | -0.4% | -5.6% | -12.4% | 10.7% | -3.1%
O=S(=O)(Nc1cccnc1)c1cccc(Cl)c1 | 8.2% | -0.7% | 12.0% | -3.9% | 2.5% | -2.4% | 6.8% | -4.5%
CN1CCC(N(C)S(=O)(=O)c2ccc(C(C)(C)C)cc2)CC1 | -15.9% | x | x | x | x | 0.8% | 0.7% | 0.2%
Cc1nc2ccccc2c(=O)n1NC(=O)c1ccccc1[N+](=O)[O-] | -3.2% | 12.2% | -11.4%[46.1 µM] | x | x | x | -1.2% | -2.7%
CCC(C)(C)C1CCC2(CC1)NC(=O)N(CC(=O)NCCc1ccc(OC)c(OC)c1)C2=O (stereo not given) | -0.1% | -12.2% | 9.5% | x | x | x | -7.8% | 24.5%
CN(Cc1ccccc1)CC(O)COc1ccc(CNCc2nccn2C)cc1 (stereo not given) | -3.8% | -26.7% | u | x | x | 5.7% | 0.2% | -18.0%
COc1ccc(S(=O)Cc2ccc(C(=O)N3CCN(C(=O)c4ccco4)CC3)o2)cc1 (stereo not given) | -21.2% | x | x | x | x | -0.4% | -2.8% | -5.8%
O=C(CSC1=NS(=O)(=O)c2ccccc2N1)Nc1cccc(F)c1 | 3.4% | 10.6% | 12.9% | x | x | x | 11.5% | -26.4%
Cc1ccc2c(C(=O)CSc3ccccc3)c(C)[nH]c2c1 | 35.4%[activator] | 15.4% | u | 12.6µM* | 2.2% | -5.2% | 5.1% | 2.7%
COc1ccc(N(C(=O)c2ccco2)S(=O)(=O)c2cc(Cl)c(Cl)cc2Cl)cc1 | 27.3% | u | u | u | -2.1% | 17.8% | -10.1% | 18.9%
c1ccc2c(CN3CCCCC3)c[nH]c2c1 | -20.9% | x | x | x | x | 2.2% | 0.4% | -12.5%
O=C(CNC(=O)c1ccco1)N=Nc1c(O)n(CCc2ccccc2)c2ccccc12 | -23.6% | x | x | x | x | 4.9% | -1.4% | -4.2%
